Source: PubChem BioAssay
RN4220 kill: growth inhibition of S. aureus RN4220, primary screen, OD600; actives 0.33% (n = 330,000); 16 h; inhibition, % (concentration not given with the values);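 active = z-score of -3 or lower and OD600 up to 0.18 on both plates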;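 also: plate controls were untreated cells for no effect and reference antibiotic for full effect; stock transfer was 100 nL into about 80 µL; one replicate is shown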
Mtb hypoxia rep: PubChem AID 1159583; M. tuberculosis hypoxia-regulated fluorescent reporter, fluorescence; fluorescence inhibition, % (concentration not given with the values); actives 0.1% (n = 300,000);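 active = 35 to 45% if threefold the growth effect, above 45% if 1.5-fold the growth effect; inactive = the rest, general growth blockers included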;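 also: wells of about 50 µL received 100 nL stock; 0% = vehicle wells and 100% = reference inhibitor wells; whole bacteria with a GFP reporter of the hypoxia response; strong numbers were not always called active; many hits fall short of the cut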
PrP UTR inh: inhibition of PrP 5' UTR reporter expression | actives 0.35% (n = 340,000) | cell-based PrP 5' UTR mRNA reporter, plate reader | AID 488862, 2010 | inhibition, % (no concentration beside the values);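 active = every replicate at 50% or more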;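 also: 0 = median of the neutral control wells; tested in H4 reporter cells; numbers are from one replicate; inactives centre near -14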
Sa ugtP lethal: growth inhibition of ugtP-null S. aureus, primary screen, RN4220 ugtP deletion, OD600; 16 h; some inactives read as strong as hits; growth inhibition, % (test concentration not listed); actives 0.54% (n = 330,000); AID 1259309, 2017;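 active = z-score under -3 and OD600 up to 0.15 on both plates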;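 also: plate controls were untreated wells for no effect and antibiotic for full effect; wells of about 80 µL received 100 nL stock; the first replicate is given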
Autofluor counter: counter-screen for toxin protease inhibitors: compound fluorescence | actives 3.1% (n = 360,000) | compound autofluorescence counterscreen, microsphere flow cytometry; hits give high values | fluorescence intensity (test concentration not listed);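 active = at least 3 SD above the mean of all compounds, about 16000 in these data; inconclusive = too few beads counted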;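 also: 100 nL of 1 mM stock went into each well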
BJeLR viability: MLPCN primary cell-based screen for lethality selective to Ras in HRASV12 cells; BJeLR (HRASV12) viability, CellTiter-Glo ATP luminescence, 48 h; reference of the scale not given here; inhibition, % (no concentration beside the values); actives 0.17% (n = 300,000);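 active = replicate mean above 50%; inconclusive = above 50% but judged a plate artefact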;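 also: 50 nL library stock added to about 25 µL; numbers are from one replicate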
Mtb hypoxia rep growth: also measured in Mtb hypoxia rep; calls as there; growth inhibition, %; measured here: M. tuberculosis growth (absorbance);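 0% = vehicle and 100% = reference antibiotic; read after six days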
* hit, by the source's call; ? = inconclusive; nt = not tested or not shown.

SMILES	RN4220 kill	Mtb hypoxia rep	Mtb hypoxia rep growth	PrP UTR inh	Sa ugtP lethal	Autofluor counter	BJeLR viability
CC(C(=O)NCC(=O)Nc1ccc(F)c(F)c1F)N1CCN(Cc2ccc(C#N)cc2)CC1 (stereo not drawn)	1.6	2.5	4.2	4.9	0.0	3407	nt
COc1ccc(C(=O)NN=Cc2coc3ccccc3c2=O)cc1	2.3	-6.6	-9.8	nt	-2.6	nt	nt
COc1ccc(C(=O)NCc2ccc(F)cc2)cc1S(=O)(=O)N1CCCC1	0.3	2.4	-11.3	-12.7	0.2	?	nt
CCN(CC)C(=O)C(=O)c1cccn1-c1ccccc1C#N	0.2	nt	nt	3.1	2.4	4268	2.1
COc1ccc(C(C)NC(=O)c2ccc(Cl)cc2)cc1OC (stereo not drawn)	-1.9	5.0	10.4	-3.2	-0.6	2035	2.4
CCOC(=O)c1ccc(NC(=O)CCc2nc(-c3cccc(C)c3)no2)cc1	1.2	6.6	7.8	-25.9	-4.9	4018	-6.5
COCC(C)n1c(COc2ccccc2F)nnc1SCC(=O)c1c(N)n(C)c(=O)n(C)c1=O (stereo not drawn)	-1.1	-10.2	5.9	-14.0	-1.2	4528	-8.9
CC(C)C1N(C(=O)N(C)C)CCN1S(=O)(=O)c1ccccc1 (stereo not drawn)	2.0	9.5	-1.8	-10.1	-6.2	4538	1.7
O=C(O)CNS(=O)(=O)c1cccc2nsnc12	3.1	0.7	8.1	-5.9	-0.1	22948*	-1.2
COc1ccc2oc(=O)c(C(C)=NNC(=O)c3ccncc3)cc2c1	8.3	1.5	7.0	nt	12.2	nt	nt
COc1ccc(/C=C/C(=O)OCC(=O)Nc2ccc(Cl)cc2F)cc1S(=O)(=O)N1CCOCC1	-0.8	3.5	11.1	-2.1	2.5	9555	8.3
CCOc1ccc(N(CC(=O)Nc2ccccc2)S(C)(=O)=O)cc1	5.1	3.1	5.5	-13.5	11.7	2427	-0.1
CC(C)CN(C(=O)CC1OC(=O)c2ccccc21)c1c(N)n(Cc2ccccc2)c(=O)[nH]c1=O (stereo not drawn)	2.2	4.4	-0.4	-15.4	6.5	4867	-2.2
Cc1cc(C)n(C(=O)Cn2nc(C(F)F)cc2C)n1	0.7	5.7	8.5	-9.6	1.9	21933*	-4.7
Cc1cc(C)nc(NS(=O)(=O)c2ccc(NC(=O)c3ccc(S(=O)(=O)N(C)C)cc3)cc2)n1	1.0	25.1	9.0	-0.4	0.4	nt	-8.9
C=CCN1C(=O)/C(=C/c2cccs2)C(=O)NC1=S	11.8	13.7	2.6	-87.0	4.7	1996	-14.0
O=C(Oc1ccc(C(=S)N2CCOCC2)cc1Br)c1ccccc1F	7.5	2.3	-0.3	-35.4	18.4	10041	-23.0
CCCOc1ccc(N2C(=O)CC(SC(=NCC)Nc3cccc(F)c3)C2=O)cc1 (stereo not drawn)	0.6	8.1	0.6	-22.2	3.5	3319	-6.8
CC(=O)Nc1ccc(S(=O)(=O)N2CCN=C2SCc2ccc([N+](=O)[O-])cc2)cc1	2.8	2.3	-5.1	-19.0	2.9	6146	16.9
COc1cccc(CN2CCN(c3nc4nonc4nc3NC3CC3)CC2)c1	-1.2	5.8	6.9	11.5	5.5	2126	0.5
COCCSc1ccccc1C(=O)NCc1ccco1	-0.4	14.8	8.6	-10.6	8.5	9779	0.8
O=c1c(C/C=C/c2ccccc2)c(O)ccn1Cc1ccc(Cl)cc1Cl	-3.1	1.6	-10.3	-7.1	15.6	4169	-18.5
Cc1ccc(N=Cc2c(O)n(-c3nccs3)c(=O)c3ccccc23)c(C)c1	5.7	-9.3	-3.9	-12.1	-11.6	2411	-17.8
CN(C(=O)CSc1ncnc2sc3c(c12)CCCC3)C1CCS(=O)(=O)C1 (stereo not drawn)	4.0	17.8	15.4	-13.9	-5.4	4039	nt
Cc1ccc(C(=O)NCCc2nnc3ccc(NCCCN4CCOCC4)nn23)cc1	4.1	3.9	7.3	-20.2	16.0	3916	7.8
COCc1cc(C)nc(OCC(=O)N/N=C/c2cc(C)n(-c3c(C)cccc3C)c2C)c1C#N	nt	nt	nt	-7.4	nt	3051	7.7
Cc1nc2ccccn2c1-c1csc(Nc2cccc(O)c2)n1	4.1	-3.0	13.8	-20.0	5.7	4292	55.0*
O=C(NCc1ccccn1)c1ccc(OC2CCN(Cc3ccc(F)cc3F)CC2)cc1	-1.8	6.6	-4.2	-7.8	4.4	6257	8.7
COc1cc(C(F)(F)F)c(C(=O)N(C)Cc2cccc(Cl)c2)cn1	4.1	22.4	11.4	-18.0	1.0	6691	-3.1
CCOC(=O)c1cn(Cc2ccccc2)nc1-c1ccccc1	6.9	-0.4	-1.2	-32.6	7.3	5933	4.2
CCCc1cc(NCC2CCCO2)n2c(nc3ccccc32)c1C#N (stereo not drawn)	2.6	18.0	8.3	-10.7	-0.9	3775	8.2
COc1ccc(S(=O)(=O)N2CCc3ccccc3C2)cc1OC	5.3	12.9	9.8	-16.4	1.4	10340	-8.0
COc1cccc(NC(=S)N(CCN2CCCCC2)Cc2ccco2)c1	4.3	2.0	11.3	9.4	2.1	5318	1.3
O=C1c2ccsc2SCCN1Cc1ccc(Cl)cc1	-0.3	nt	nt	-12.2	4.9	2243	17.2
N#Cc1ccsc1NC(=O)COc1ccc(-c2nnco2)cc1	-0.5	nt	nt	-40.2	-4.7	3034	4.1
Cc1c(C#N)sc2nc(-c3ccccc3)nc(N3CCCC3)c12	0.9	nt	nt	-32.3	-5.3	4501	4.5
COc1ccc([C@H]2/C=C\CN(S(=O)(=O)c3cccc4cccnc34)[C@@H](C)C(=O)N2Cc2ccc(F)cc2)cc1	nt	nt	nt	-19.5	nt	4212	4.7
COc1ccc(OC)c(NC(=O)NCCc2cccc(Cl)c2)c1	-0.5	6.3	4.2	14.8	-3.1	?	-4.3
O=C(Nn1c(COc2ccccc2)nc2ccccc2c1=O)C(Cl)(Cl)Cl	99.5*	11.6	3.1	-3.6	100.0*	3098	6.8
O=C(c1ccc(COc2ccc(F)cc2)o1)n1cccn1	3.6	-1.7	10.3	8.6	3.8	3612	2.8

Some values from the list:
Autofluor counter result of COc1ccc(S(=O)(=O)N2CCc3ccccc3C2)cc1OC reads 10340
Mtb hypoxia rep result of CN(C(=O)CSc1ncnc2sc3c(c12)CCCC3)C1CCS(=O)(=O)C1 (stereo not drawn) reads 17.8

3 entries drawn at random from the list so far, as already listed:
SMILES	RN4220 kill	Mtb hypoxia rep	Mtb hypoxia rep growth	PrP UTR inh	Sa ugtP lethal	Autofluor counter	BJeLR viability
CCCc1cc(NCC2CCCO2)n2c(nc3ccccc32)c1C#N (stereo not drawn)	2.6	18.0	8.3	-10.7	-0.9	3775	8.2
Cc1ccc(C(=O)NCCc2nnc3ccc(NCCCN4CCOCC4)nn23)cc1	4.1	3.9	7.3	-20.2	16.0	3916	7.8
O=C(c1ccc(COc2ccc(F)cc2)o1)n1cccn1	3.6	-1.7	10.3	8.6	3.8	3612	2.8

Next part
SMILES	RN4220 kill	Mtb hypoxia rep	Mtb hypoxia rep growth	PrP UTR inh	Sa ugtP lethal	Autofluor counter	BJeLR viability
CCCCSc1nc(O)c(C2OC(=O)c3c2ccc(OC)c3OC)c(=O)n1C (stereo not drawn)	-1.5	-3.4	9.4	5.0	-4.8	9174	5.1
COc1ccc(S(=O)(=O)N=Nc2c(O)[nH]c3ccccc23)cc1	1.8	-3.0	4.1	-14.2	2.9	3727	3.0
O=C(N/N=C/C(Br)=C/c1ccccc1)c1cnccn1	nt	nt	nt	-40.8	nt	5040	8.6
CC(Oc1ccc(Cl)cc1)C(=O)N1CCN(C(=O)c2ccco2)CC1 (stereo not drawn)	0.9	12.7	-2.7	-5.7	4.3	nt	nt
CN(C)/C=C1\N=C(c2cccnc2Oc2ccc(Cl)cc2)OC1=O	3.3	13.9	6.4	-47.7	6.1	5664	-12.8
CC(C)(C)n1nc2c(c1NC(=O)Cc1cccc3ccccc13)CS(=O)C2 (stereo not drawn)	1.4	7.8	5.7	-6.7	4.9	5834	-3.8
O=C(CN1C(=O)NC(Cc2ccccc2)C1=O)Nc1ccc(OC(F)F)cc1 (stereo not drawn)	2.4	1.3	-7.4	-7.0	6.1	5436	-2.9
COc1cccc(CNC(=O)c2csc3c2CCCC3)c1	-0.2	-3.6	2.0	4.7	0.1	?	8.5
CC(C)(CNc1ccc([N+](=O)[O-])cc1C#N)N1CCOCC1	3.0	2.8	9.0	-13.8	5.9	4037	nt
COC(=O)C1=C(c2cc3ccccc3o2)C[C@@H]2CC[C@H]1N2C(=O)NCCO	nt	nt	nt	-9.3	nt	4537	-0.5
Nn1c(SCC(=O)N2CCCCCC2)nnc1-c1ccncc1	-0.3	-4.2	-11.6	-23.4	-4.7	14373	-9.8
CCC(C)NC(=O)NC(=O)CSc1nnc(-c2ccccc2F)n1C1CC1 (stereo not drawn)	6.2	-3.9	3.6	-15.8	-5.0	5330	-5.8
COc1cccc(-c2nc(-c3ccncc3)no2)c1	4.4	1.0	7.0	-24.8	13.6	3899	18.0
CC(CN)(NS(=O)(=O)c1ccccc1)c1ccccc1 (stereo not drawn)	0.0	10.0	7.5	-5.1	1.7	2898	8.7
CSc1ncccc1C(=O)OCCCC(=O)c1ccc(F)cc1	5.0	12.1	8.1	-6.6	7.2	?	nt
O=C(OC(C(=O)NC1CCCCC1)c1ccc(C(F)(F)F)cc1)c1ccco1 (stereo not drawn)	4.4	12.0	16.2	-9.6	5.5	?	-3.3
COc1ccc(NC(=O)c2nnn(CC(=O)Nc3ccccc3OC)c2N)c(OC)c1	2.5	7.7	3.4	-22.7	4.3	5852	6.9
O=C(Nc1ccccc1Br)C(=O)N1CCCC1	8.9	-5.2	-4.4	-13.8	0.6	2475	0.1
Cc1ccc(-c2noc(CCCC(=O)NC3CCCC3)n2)cc1	-3.0	1.1	-2.8	0.5	1.6	3046	4.0
COc1ccc(S(=O)(=O)NCCSC(C)(C)C)cc1	3.9	5.0	9.0	-30.8	-3.2	5535	-0.6

Single records, from the list above:
Record of COc1cccc(CNC(=O)c2csc3c2CCCC3)c1 = RN4220 kill: -0.2; Mtb hypoxia rep: -3.6; Mtb hypoxia rep growth: 2.0; PrP UTR inh: 4.7; Sa ugtP lethal: 0.1; Autofluor counter: ?; BJeLR viability: 8.5
Record of CCC(C)NC(=O)NC(=O)CSc1nnc(-c2ccccc2F)n1C1CC1 (stereo not drawn) = RN4220 kill: 6.2; Mtb hypoxia rep: -3.9; Mtb hypoxia rep growth: 3.6; PrP UTR inh: -15.8; Sa ugtP lethal: -5.0; Autofluor counter: 5330; BJeLR viability: -5.8
Record of CC(CN)(NS(=O)(=O)c1ccccc1)c1ccccc1 (stereo not drawn) = RN4220 kill: 0.0; Mtb hypoxia rep: 10.0; Mtb hypoxia rep growth: 7.5; PrP UTR inh: -5.1; Sa ugtP lethal: 1.7; Autofluor counter: 2898; BJeLR viability: 8.7

(continued)
SMILES	RN4220 kill	Mtb hypoxia rep	Mtb hypoxia rep growth	PrP UTR inh	Sa ugtP lethal	Autofluor counter	BJeLR viability
CCOC(=O)c1cnc2c(-c3ccccc3OC)c(C)nn2c1C	7.4	13.2	5.9	76.5*	-9.4	4257	-3.3
C#Cc1ccc([C@@H]2C=C(C(=O)NCc3ccccc3)O[C@H](OCCCCO)C2)cc1	nt	nt	nt	-13.6	nt	3525	-6.3
C/C(=N\NC(=O)c1nn(C)cc1Br)c1cccc(NC(=O)C2CCCC2)c1	nt	nt	nt	2.7	nt	3863	-13.1
O=C(COC(=O)C1CCN(S(=O)(=O)c2ccc3c(c2)OCCO3)CC1)Nc1cc(C(F)(F)F)ccc1Cl	2.9	4.1	8.5	-29.5	-5.7	2054	5.6
CC(=O)NNC(=O)CN1C(=O)CN=C(c2ccccc2)c2cc(Br)ccc21	3.4	-2.4	6.9	-16.4	4.9	4674	9.8
O=C(Nc1ccc(Br)cc1)c1ccccc1CC[N+](=O)[O-]	4.2	nt	nt	4.3	-1.6	2608	1.2
Cc1cnc(C(=O)OCc2ccc(Br)cc2)cn1	1.0	15.4	7.6	-32.9	-0.3	4163	0.2
OCCCNc1nnc(-c2ccccc2)c2ccccc12	-2.1	5.5	-6.3	-30.4	-1.8	3599	-1.0

The order is random (roughly 3.9% active in at least one column).
